KCNQ2 block – KCNQ2 channel blockers in CHO-K1 cells – cell-based, FluxOR thallium flux, B-score, primary screen (AID 2156) | 310,000 tested, 1.1% active | O88943 | B-score at 10 µM | 20 min; active compounds read low; only compounds with negative scores are shown here; some inactives read as strong as hits;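 active means fluorescence ratio B-score at most minus 3 library SDs, with starting brightness B-score within 2 library SDs, cut at about -5.5 in these data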
Target sequence (O88943 whole entry, looked up): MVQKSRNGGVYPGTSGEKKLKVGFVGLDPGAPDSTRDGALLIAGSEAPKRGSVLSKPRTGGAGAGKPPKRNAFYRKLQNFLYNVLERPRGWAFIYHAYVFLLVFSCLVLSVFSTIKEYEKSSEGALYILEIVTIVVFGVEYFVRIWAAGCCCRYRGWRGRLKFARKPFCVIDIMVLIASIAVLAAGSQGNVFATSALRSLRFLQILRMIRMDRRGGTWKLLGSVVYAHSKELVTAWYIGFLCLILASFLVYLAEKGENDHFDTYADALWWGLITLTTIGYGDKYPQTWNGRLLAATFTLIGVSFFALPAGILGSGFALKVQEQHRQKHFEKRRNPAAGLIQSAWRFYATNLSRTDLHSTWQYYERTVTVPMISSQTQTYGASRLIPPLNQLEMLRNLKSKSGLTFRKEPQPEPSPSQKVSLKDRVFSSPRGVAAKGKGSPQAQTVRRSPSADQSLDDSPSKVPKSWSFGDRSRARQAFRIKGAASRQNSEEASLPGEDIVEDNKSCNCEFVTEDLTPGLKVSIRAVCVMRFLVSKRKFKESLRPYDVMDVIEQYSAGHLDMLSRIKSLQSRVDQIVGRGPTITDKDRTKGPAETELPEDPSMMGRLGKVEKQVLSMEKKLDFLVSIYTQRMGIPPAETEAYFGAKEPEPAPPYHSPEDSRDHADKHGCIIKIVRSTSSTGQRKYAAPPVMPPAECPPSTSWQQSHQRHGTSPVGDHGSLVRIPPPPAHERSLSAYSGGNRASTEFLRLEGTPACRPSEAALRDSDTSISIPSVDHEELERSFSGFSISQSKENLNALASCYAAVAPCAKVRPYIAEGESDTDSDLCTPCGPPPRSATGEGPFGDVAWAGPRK
KCNQ2 block baseline – second read-out of KCNQ2 block, no call of its own (marks repeat the call); B-score; measured here: initial fluorescence intensity artifact check;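 brightness before thallium and not channel activity; 0 = typical well and far values either way flag optical interference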
* hit, by the source's call; i = inactive. Not all compounds are listed; count on the stated rates, not on these rows.

The opening 5 entries, ahead of the listing:
Structure,KCNQ2 block baseline,KCNQ2 block
COc1ccc(CCNC(=O)C(=O)NCC2OCCN2S(=O)(=O)c2cc(F)ccc2F)cc1OC (stereo not given),-0.37,i
CCC(=O)c1cc2c(cc1NC(=O)c1ccccc1)OCCO2,-0.21,i
CCOC(=O)N1CCC(=C(C#N)C(=O)Nc2cc(OC)ccc2OC)CC1,-1.1,i
Cc1ccc2nc(NC(=O)COC(=O)c3ccco3)sc2c1,1.59,i
Cn1cc(S(=O)(=O)N2CCOCC2)cc1C(=O)Nc1cccc(Cl)c1,-0.88,i

The whole of this part (from the top)
Structure,KCNQ2 block baseline,KCNQ2 block
COc1ccc(CCNC(=O)C(=O)NCC2OCCN2S(=O)(=O)c2cc(F)ccc2F)cc1OC (stereo not given),-0.37,i
CCC(=O)c1cc2c(cc1NC(=O)c1ccccc1)OCCO2,-0.21,i
CCOC(=O)N1CCC(=C(C#N)C(=O)Nc2cc(OC)ccc2OC)CC1,-1.1,i
Cc1ccc2nc(NC(=O)COC(=O)c3ccco3)sc2c1,1.59,i
Cn1cc(S(=O)(=O)N2CCOCC2)cc1C(=O)Nc1cccc(Cl)c1,-0.88,i
CC(=O)N1c2ccc(S(=O)(=O)N3CCC(C(=O)NCc4ccccc4)CC3)cc2CC1C (stereo not given),0.05,i
COc1ccc(-n2c(C)cc(C(=O)CN3CCCCC3)c2C)cc1,0.48,i
CC(=O)c1cccc(NC(=O)CSc2ncc(C(=O)Nc3ccccc3)c(=O)n2C)c1,-0.34,i
COc1ccc(/C=C/C(=O)NCCn2c(C)cc3ccccc32)cc1OC,-0.23,i
C=CCOC(=O)C1CC=CCC1C(=O)Oc1ccc(F)cc1F (stereo not given),1.12,i
CCC1CCCCN1S(=O)(=O)c1ccc2c(c1)CCN2C(C)=O (stereo not given),-0.17,i
CC1(NC(=O)COc2ccccc2-c2ccccc2)CCS(=O)(=O)C1 (stereo not given),0.01,i
O=C(Nc1ccc2c(c1)nc1n2CCOC1)C1CCCCC1,-0.31,i
CCOc1ccc(N(CC(=O)NC2CCCC2)C(=O)CCCC(=O)Nc2ccccn2)cc1,1.25,i
CCN(CC)C(=O)COc1ccc(C=O)cc1OC,-1.27,i
CCN(CC)S(=O)(=O)c1ccc(NC(=O)c2ccccn2)cc1,-0.42,i
CC(C)(C)NC(=O)C1Cc2ccccc2CN1S(=O)(=O)c1ccc(F)cc1 (stereo not given),-0.02,i
COc1cccc(Cn2cc(-c3cccc(C(F)(F)F)c3)nn2)c1,-2.42,i
C=CCNC(=O)COC(=O)c1oc2ccccc2c1CSC1CCCCC1,-0.04,i
O=P(COCCOCCOCCOCP(=O)(c1ccccc1)c1ccccc1)(c1ccccc1)c1ccccc1,0.32,i
Cc1ccccc1NC(=S)NC(C)C(c1ccccc1)N1CCN(C)CC1 (stereo not given),0.65,i
CCOC(=O)CSc1nc2sc3c(c2c(=O)n1-c1ccc(C)cc1)CCN(C)C3,-0.27,i
Cc1cccc(C)c1NC1=NC(=S)N(c2ccccc2)C12CCOC(C)(C)C2 (stereo not given),-0.02,i
Cc1ccc(S(=O)(=O)C(CNC(=O)C(C)C)c2cccs2)cc1 (stereo not given),-0.02,i
O=C(Cn1cc2c(n1)CCCCC2)N1CCc2ccccc2C1,1.61,i

The list goes on:
Structure,KCNQ2 block baseline,KCNQ2 block
Cc1cc(C)c(NC(=O)C2CCCN2C(=O)NC2CCCCC2)c(C)c1 (stereo not given),1.96,i
COc1ccc(S(=O)(=O)NC(N)=NCCc2ccc(OC)c(OC)c2)cc1C,-0.17,i
COc1cc(OC)c2c(c1)S(=O)(=O)C(c1ccccc1)=C2N,-0.99,i
Cc1ccc(NCc2nnc(SCC(=O)c3ccccc3)n2Cc2ccco2)c(C)c1,-0.48*,-7.77*
COC(=O)CCc1c(C)c(C(=O)c2ccc(F)cc2)c2ccccn12,0.58,i
C/C=C/c1cc(OC)c2c(c1)[C@H](C)[C@@H](c1ccc(O)c(OC)c1)O2,0.63,i
Cc1cc(NC(=O)CCC(=O)N(CC(=O)NCC2CCCO2)c2ccccc2)no1 (stereo not given),0.12,i
CS(=O)(=O)Nc1ccc(C2=NN(C(=O)c3ccco3)C(c3ccccc3)C2)cc1 (stereo not given),0.04,i
CCCOC(=O)NC(CC)COC(=O)Nc1cc(C)ccc1C (stereo not given),0.67,i
Cc1cc(OCCOc2cccc3cccnc23)c(C)cc1Cl,-0.34,i
CCOC(=O)c1c(C)oc2ccc(NS(=O)(=O)c3ccc4c5c(cccc35)C(=O)N4)cc12,-0.76,i
CC1CCCCN1C(=O)Cn1c(=O)n(CCC(=O)NCc2ccco2)c(=O)c2sccc21 (stereo not given),0.25,i
Cc1cccc(NC(=O)C2(c3ccc([N+](=O)[O-])cc3)CCCC2)c1,-0.02,i
N#CC1(C#N)COC23CCCCC2C1(C#N)C(=N)O3 (stereo not given),-0.99,i
Cc1cccc(Nc2nc3ccccc3n3nnnc23)c1,-1.89,i
Cc1ccc(C(=O)NNC(=O)c2cccc(C)c2)cc1,-0.63,i
CCOC(=O)c1ccc(NC(=O)Oc2cc(C)c(Cl)cc2C(C)C)cc1,-2.41,i
COc1ccc(-c2noc(CCC(=O)O)n2)cc1,1.51,i
Cc1ccccc1C(=O)NC(=S)Nc1ccc(N2CCN(C(=O)c3ccccc3)CC2)cc1,0.05,i
CCOc1ccc2ccccc2c1/C=N/NC(=O)CC1(C)OCCCO1,-0.9,i
CCCCOCCCNC(=O)c1ccc(OCC)cc1,0.16,i
COC(=O)c1c(NC(=O)COc2ccc(Cl)cc2)sc2c1CC(C)(C)NC2(C)C,0.16,i
CC(C)c1ccc(N(C(=O)c2csnn2)C(C(=O)NC(C)(C)C)c2ccncc2)cc1 (stereo not given),1.87,i
O=c1c2ccccc2nc(SCc2cn3ccsc3n2)n1-c1ccccc1F,-0.37,i
COc1ccc(C2Cc3ccccc3C(=O)O2)cc1 (stereo not given),1.19,i

(listing goes on)
Structure,KCNQ2 block baseline,KCNQ2 block
COc1ccc(-n2cccc2/C=C2\C(=N)N3N=C(C(C)C)SC3=NC2=O)cc1,-0.33,i
CCOC(=O)c1c(NC(=O)CN(CC)CC)sc2c1CCC2,-1.66,i
O=C(CNCCc1ccccc1)N1CCc2ccccc2C1,-0.66,i
Cc1ccc2nc(N(CCCN(C)C)C(=O)c3sc4ccccc4c3Cl)sc2c1,1.44,i
O=C(O)CCN(CCC(=O)O)S(=O)(=O)c1ccccc1,1.54,i
COc1ccc(/C=N/NC(=O)C(=O)N2CCCCCC2)cc1O,-1.4,i
COC(=O)COc1nc(C)c(Br)c(OC)n1,0.63,i
O=C(C1CCN(C2CCN(Cc3ccc4c(c3)CCO4)CC2)CC1)N1CCOCC1,-0.95,i
CCOC(=O)C1CCN(CC(C)(C)NS(=O)(=O)c2ccc(Cl)cc2)CC1,0.07,i
COc1ccc(CNC(=O)c2csc(Cc3ccccc3)n2)cc1,-0.45,i
O=C(c1ccco1)N(CCO)Cc1cc2cc3c(cc2[nH]c1=O)OCO3,0.44,i
COc1cc(/C=C2/C(=O)ON=C2C)ccc1OCc1ccccc1F,2.13,i
COCc1cc(Sc2c(Cl)cccc2Cl)nc(-c2ccccc2)n1,0.6,i
O=C(N/N=C/c1cc2c(cc1Cl)OCO2)c1ccc2c(c1)OCCO2,1.59,i
CCOc1ccc(NC(=O)CCNC(=O)C2CCN(S(=O)(=O)c3ccccc3)CC2)cc1,-0.02,i
CNC(=S)N(CCc1ccccc1)Cc1cc2cc(OC)c(OC)cc2[nH]c1=O,-0.01,i
CC(Oc1ccc(F)cc1)c1ccnc2nc(/N=C/N(C)C)nn12 (stereo not given),1.92,i
COc1cccc(-c2csc(N3CCN(Cc4ccccc4)CC3)n2)c1,3.45,i
COc1cc(NC(=O)c2cccs2)ccc1NC(=O)Cc1ccccc1,2.68,i
CC(C)Cn1c(=O)c2ccccc2n2c(CCC(=O)O)nnc12,-1.07,i
Cc1cc(OC(=O)c2c(Cl)cccc2Cl)nc(C)n1,-0.12,i
COc1cccc(OC)c1C(=O)Nc1ccc2c(c1)Cc1ccccc1-2,2.06,i
COC(=O)CCNC(=O)Cn1cnc2sc3c(c2c1=O)CCCC3,0.04,i
C=C(C)COc1ccc(-c2ncnc(C(F)(F)F)c2-c2ccc(OC)cc2)c(O)c1,-0.02,i
Cc1cc(C)c2c(CN3CC(C)OC(C)C3)cc(=O)oc2c1C (stereo not given),1.08,i

(listing goes on)
Structure,KCNQ2 block baseline,KCNQ2 block
O=C(Nc1ccccc1Cl)/C(Cl)=C(\Cl)S(=O)c1ccccc1 (stereo not given),-0.1*,-9.85*
COc1cc(NC(=O)c2cc([N+](=O)[O-])ccc2NC(=O)CNC2CCCCC2)cc(OC)c1,0.68,i
CCOP(=O)(OCC)C(NC(=O)Nc1ccc(Cl)c(Cl)c1)C(N)=O (stereo not given),0.56,i
CN1C(CC(=O)Nc2ccc(Cl)cc2Cl)c2ccccc2CC1(C)C (stereo not given),0.01,i
O=C(CCc1ccccn1)N1CCCC(N2CCN(c3ccc(F)cc3)CC2)C1 (stereo not given),2.18,i
COc1ccccc1C1CC(c2ccc(Cl)cc2Cl)Nc2nc(N)nn21 (stereo not given),-0.54,i
NC(=S)N=Nc1c(O)n(CCCl)c2ccc(Cl)cc12,-0.02,i
O=S(=O)(c1ccccc1)N1CCNCC1,-0.97,i
Cc1nn(Cc2ccc(Cl)cc2Cl)c(C)c1NC(=O)c1nn(C)cc1Cl,0.13,i
Cn1c(=O)c(=O)n(C)c2cc(S(=O)(=O)N3CCCC3C(=O)NCc3cccs3)ccc21 (stereo not given),2.28,i
CCCCCCCNC(=O)C1(CC2CC(c3ccc(Cl)cc3)=NO2)CCN(C(=O)C2CCCC2)CC1 (stereo not given),0.14,i
O=C(CC1N=C2c3ccccc3N=C(SCc3ccc(F)cc3)N2C1=O)NCc1ccco1 (stereo not given),0.92,i
O=C(NN1C(=O)c2ccccc2NC1c1cccnc1)c1ccc([N+](=O)[O-])cc1 (stereo not given),0.04,i
Cc1cccc(C)c1OCc1cc(C(=O)N2CCCCCCC2)no1,0.1*,-6.55*
O=C(c1c(F)cccc1F)N(Cc1cccs1)C1CCCC1,-0.01,i
Cc1cc(NC(=O)COC(=O)Cn2c(C)csc2=O)ccc1Br,0.37,i
O=C(c1cc(-c2ccncc2)nc2c(Cl)cccc12)N1CCN(c2ccccc2F)CC1,3.42,i
COc1cc(/C=C2/C(=O)ON=C2c2ccccc2)ccc1O,-1.97,i
CCOc1cccc(C2C(C(=O)c3ccc(C)o3)=C(O)C(=O)N2Cc2ccccc2)c1 (stereo not given),0.46,i
N#CC1=C(N)N(c2ncn[nH]2)C2=C(C(=O)CCC2)C1c1ccc(F)cc1 (stereo not given),0.48,i
CC1(C)CC(CNCCC(c2ccc(F)cc2)c2ccco2)CCO1 (stereo not given),0.55,i
CCCCN(C)CCCNC(=O)c1cc(-c2cccnc2)nc2ccccc12,1.79,i
O=C(NCCC1CCCCN1S(=O)(=O)c1ccccc1)C(=O)NCc1ccncc1 (stereo not given),-0.02,i
Cc1ccc(Nc2nc(CSc3nnc(-c4ccncc4)n3-c3ccccc3C)cs2)cc1,0.09,i
Cc1ccc(S(=O)(=O)NCCC(=O)OCC(=O)N(Cc2ccccc2)C(C)(C)C)cc1C,0.65,i

Part of the list above in order of SMILES length, high to low:
Structure,KCNQ2 block baseline,KCNQ2 block
CCCCCCCNC(=O)C1(CC2CC(c3ccc(Cl)cc3)=NO2)CCN(C(=O)C2CCCC2)CC1 (stereo not given),0.14,i
O=C(CC1N=C2c3ccccc3N=C(SCc3ccc(F)cc3)N2C1=O)NCc1ccco1 (stereo not given),0.92,i
Cc1cc(NC(=O)COC(=O)Cn2c(C)csc2=O)ccc1Br,0.37,i

Continuation.
Structure,KCNQ2 block baseline,KCNQ2 block
Cc1cccc(C)c1NC(=O)c1sc(N)nc1-c1ccccc1,-1.33,i
Fc1cccc(CN2CCN(Cc3nc(CCc4ccccc4)no3)CC2)c1,0.21,i
CN1CCc2c(sc(NC(=O)CS(=O)(=O)c3ccccc3)c2C(N)=O)C1,1.22,i
COc1ccc(-n2nc(C(=O)NCC(=O)Nc3ccc(F)cc3)c3ccccc3c2=O)cc1,1.57,i
Cc1cccc(OCCN2CCOCC2)c1C,0.71,i
COc1ccc(S(=O)(=O)N2CCC(C(=O)NCC3CC3)CC2)cc1,-0.73,i
CCn1c(CNC(=O)c2cccc(C)c2)nnc1SCC(=O)Nc1nnc(C)s1,0.24,i
Cc1ccc(C)c(OCCCCn2cnc3ccccc3c2=O)c1,1.91,i
CCC(C)n1c(SCC(=O)NC(=O)c2cccn2C)nc2ccccc2c1=O (stereo not given),0.67,i
CN(C)c1ccc(/C=N/NS(=O)(=O)c2ccc(Br)cc2)cc1,-1.7,i
Oc1cc2c(cc1O)C(c1ccccc1)CNCC2 (stereo not given),0.17,i
Cc1ccc(CS(=O)(=O)CCC(=O)NCc2ccccn2)cc1,1.5,i
Cc1cccc(S(=O)(=O)NNC(=O)c2cc(-c3ccc(F)cc3)nc3ccccc23)c1,-0.01,i
CC(C)CN(C(=O)c1ccc(F)cc1F)c1c(N)n(CC(C)C)c(=O)[nH]c1=O,0.59,i
COc1ccc2[nH]c(C(=O)N3CCNCC3)cc2c1OC,2.15,i
CC(=O)Oc1ccc(C(=O)[C@H]2[C@H]3C(=O)N(c4ccc(C)cc4)C(=O)[C@H]3[C@@H]3C=CC=NN32)cc1,3.23,i

Fetched by structure from above:
Structure,KCNQ2 block baseline,KCNQ2 block
COc1ccc(S(=O)(=O)N2CCC(C(=O)NCC3CC3)CC2)cc1,-0.73,i
CC(C)CN(C(=O)c1ccc(F)cc1F)c1c(N)n(CC(C)C)c(=O)[nH]c1=O,0.59,i
